# Screens from PubChem.
# Mtb growth: Mycobacterium tuberculosis H37Rv growth inhibition, cell based, confirmatory dose response (AID 1949); inhibition, % at 10 µg/mL, or IC50 in µg/mL where a hit was titrated; most inactive calls were filed without a number and no value below 0 was filed; actives 1.6% (n = 100,000);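 active = confirmed in a dose series; inconclusive = about 50% or more but not retested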;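 also: bacteria grown 7 days with compound before Alamar blue readout; 0% = untreated bacteria and 100% = reference antibiotic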
# Numbers without * were called inactive; i = inactive; ? = inconclusive.
# A first look (7 entries):
mol | Mtb growth
Cc1cc(C)c(C#N)c(N2CCCC2)n1 | i
Cn1c(SCC(=O)Nc2cc(C(F)(F)F)ccc2Cl)nnc1-c1ccc(Br)cc1 | i
COc1ccc(S(=O)(=O)Nc2ccc(C)c([N+](=O)[O-])c2)cc1 | i
CCCC(=O)Nc1ccc(Cl)c(NC(=O)c2ccc(OC)c([N+](=O)[O-])c2)c1 | 1.8%
COc1cc(S(=O)(=O)n2cnc(C)c2)ccc1Cl | i
C=CCn1c(Cc2ccccc2)nnc1SCC(=O)Nc1cc(C)c(C)cc1Br | 0.6%
Cc1ccc(NS(=O)(=O)c2ccc(NS(=O)(=O)c3ccc(C)c([N+](=O)[O-])c3)cc2)cc1Cl | i

# The whole of this part, repeating the preview:
mol | Mtb growth
Cc1cc(C)c(C#N)c(N2CCCC2)n1 | i
Cn1c(SCC(=O)Nc2cc(C(F)(F)F)ccc2Cl)nnc1-c1ccc(Br)cc1 | i
COc1ccc(S(=O)(=O)Nc2ccc(C)c([N+](=O)[O-])c2)cc1 | i
CCCC(=O)Nc1ccc(Cl)c(NC(=O)c2ccc(OC)c([N+](=O)[O-])c2)c1 | 1.8%
COc1cc(S(=O)(=O)n2cnc(C)c2)ccc1Cl | i
C=CCn1c(Cc2ccccc2)nnc1SCC(=O)Nc1cc(C)c(C)cc1Br | 0.6%
Cc1ccc(NS(=O)(=O)c2ccc(NS(=O)(=O)c3ccc(C)c([N+](=O)[O-])c3)cc2)cc1Cl | i
COC(=O)c1ccccc1NC(=O)c1ccc2c(c1)OCO2 | i
O=CN1CCN(C(=O)COc2ccc(Br)cc2)CC1 | i
Cc1cc(OCCCCN2CCN(C)CC2)ccc1[N+](=O)[O-] | i
CNC(=O)c1[nH]cnc1C(=O)Nc1ccc(F)cc1 | i
O=C(Nc1ccc(-c2nc3cccnc3o2)cc1)c1cccs1 | i
COCCN1C(=O)c2cccc3c(Cl)ccc(c23)C1=O | i
COc1ccccc1-n1cnc2cc(NC(C)=O)ccc21 | 5.0%
CCn1c2ccccc2c2cc(NC(=O)CC(C)(C)C)ccc21 | 9.2%
COc1ccccc1C(=O)N=Nc1c(O)[nH]c2c(C)cccc12 | 0.9%
Cc1ccccc1C(=O)N1CCC(C(=O)Nc2ccc(F)c(Cl)c2)CC1 | 4.7%
COc1ccc(S(=O)(=O)N(CC(=O)Nc2ccccc2C(C)C)c2ccccc2OC)cc1 | 5.3%
COc1ccc(-c2cc(=O)c3cc(OCC(=O)Nc4ccc(Cl)cc4)ccc3o2)cc1 | i
C=C(C)Cn1c(SC(C)C(=O)N2CCCCC2)nc2ccc(I)cc2c1=O (stereo not drawn) | i
CCc1c(O)nc(SCC(N)=O)n(-c2ccccc2F)c1=O | i
CCOC(=O)Cc1nnc(NC(=O)c2ncn[nH]2)s1 | i
CN(C)CCN1C(=O)C(O)=C(C(=O)c2cccs2)C1c1ccc(OCC(N)=O)cc1 (stereo not drawn) | i
CC1CC(C)CN(c2ccc(S(=O)(=O)N3CCOCC3)cc2)C1 (stereo not drawn) | i
CC(=O)Nc1ccc(-c2nnc(SCC(=O)N3CCN(c4ccccc4)CC3)n2C)cc1 | 4.5%
NC(=O)c1c(NC(=S)NC(=O)c2ccccc2Br)sc2c1CCCC2 | i
O=C(COc1ccc(Cl)cc1[N+](=O)[O-])N1CCCCC1 | i
Cc1ccc(Sc2nc([N+](=O)[O-])nn2CC(=O)c2ccc(Cl)cc2)cc1 | 0.1%
CC(C)Cc1nc2ccccc2c(=O)n1-c1c(Cl)cccc1Cl | 7.0%
CCOc1ccc2c(c1)c1nc3ccccc3nc1n2C | 8.4%
COc1ccc(CCNCc2cccs2)cc1OC | i
O=c1[nH]c(=S)[nH]c2sc3c(c12)CCCCCC3 | i
CCC(=O)NC(=S)Nc1ccc(NC(=O)COc2ccccc2[N+](=O)[O-])cc1 | 48.5%
Cc1ccc(-c2cc(=O)c3ccc(C)cc3o2)cc1 | 19.3%
Cc1ccc(CSCC(=O)N2CCN(Cc3ccc4c(c3)OCO4)CC2)cc1 | 1.2%
Cc1cc(C)cc(OCC(=O)N2CCN(c3ccc(F)cc3)CC2)c1 | 3.8%
O=C(Cc1cccs1)Nc1ccc(C(F)(F)F)cc1 | i
COc1ccc(C(C)NC(=O)C(=O)NCc2ccco2)cc1 (stereo not drawn) | 2.7%
C=CCn1c(SCC(=O)Nc2ccccc2OCC)nnc1-c1ccc([N+](=O)[O-])cc1 | i
CC(C)Cn1c(SCc2ccc(Br)cc2)nnc1-c1ccncc1 | i
Cc1ccccc1N1C(=O)NC(=O)C(CCc2ccncc2)(Cc2ccccc2[N+](=O)[O-])C1=O (stereo not drawn) | i
O=C1C(Cl)=C(c2ccc(Cl)cc2)C(=O)N1c1ccc([N+](=O)[O-])cc1 | i
COC(=O)C1=CN(CC2CCCO2)C=C(C(=O)OC)C1c1ccc(C)c(Br)c1 (stereo not drawn) | 0.1%
CCN(CC)CC(O)Cn1c2c(c3cc(C)ccc31)CCCC2=O (stereo not drawn) | 3.5%
CCN(CC(=O)NC1CCCC1)S(=O)(=O)c1ccc(Br)cc1 | i
O=C(O)CCC(=O)Nc1nc(-c2cc3ccccc3oc2=O)cs1 | i
Cc1c(N2C(=O)C3C4C=CC(C5CC45)C3C2=O)c(=O)n(-c2ccccc2)n1C (stereo not drawn) | i
CC1CCCN(CCOc2ccc3ccccc3c2Br)C1 (stereo not drawn) | 33.7%
O=C(N1CCN(c2ccccc2)CC1)C(O)(c1ccccc1)c1ccccc1 | 0.1%
CCOC(=O)c1cnn2c1NC1=C(CCc3ccccc31)C2C(F)(F)F (stereo not drawn) | i
O=C(NNC(=S)Nc1ccc(F)c(Cl)c1)C1CC1 | 3.6%
CCN(CC)CC(O)COc1ccccc1C(C)=O (stereo not drawn) | i
Cc1c(Cl)cccc1N(CC(=O)O)S(C)(=O)=O | i
COc1cccc(-n2cnc3sc4c(c3c2=O)CCCCC4)c1 | 13.7%
CCOC(=O)C1CCN(C(=O)C2CCN(Cc3ccc(OCC)cc3)CC2)CC1 | i
CS(=O)(=O)c1ccc(-c2nnn(CC(=O)NC3CCCC3)n2)cc1 | i
CCOc1ccc(CC2S/C(=N\N=C\c3ccccc3OC)NC2=O)cc1 (stereo not drawn) | i
CN1CCN(C(=O)CN(C)S(=O)(=O)c2ccc(Br)cc2)CC1 | i
CCc1c(C)sc(NC(=S)Nc2ccc3c(c2)OCO3)c1C(=O)OC | i
CCOCCc1nnc(NC(=O)C(Cl)Cl)s1 | 0.5%

# Following part
mol | Mtb growth
CNC(=O)C12CCC(C)(c3nc4cc(C)c(C)cc4nc31)C2(C)C (stereo not drawn) | 1.6%
CSc1ccc(S(=O)(=O)Nc2ccc3ccccc3c2)cc1 | i
O=C(Nc1ccc(Cl)c(-c2nc3ccccc3s2)c1)c1cncc(Br)c1 | 7.5%
CCOc1ccccc1NC(=O)CCCC(=O)O | i
O=S(=O)(Cc1ccccc1)NC(c1ccccc1)c1ccccc1 | 6.2%
O=C(CN1CCCCCC1)Nc1ccccc1[N+](=O)[O-] | 3.7%
COC(=O)c1sc(NC(=O)COc2ccc(C(C)C)cc2)c(C#N)c1C | 0.4%
CCn1cc(C(=O)c2ccco2)c2ccccc21 | i
CC(=O)NC(=S)Nc1ccc(Br)c(C)n1 | i
Cc1nc(N)sc1-c1nnc(SCC(=O)Nc2ccccc2C(F)(F)F)n1C | i
Cc1nc(N2CCN(c3ccccc3)CC2)[nH]c(=O)c1CCC(C)C | i
CCCNC(=O)CCn1nc(-c2ccccc2)c2ccccc2c1=O | i

# Random excerpt: two compounds from above, in no set order.
mol | Mtb growth
Cc1nc(N2CCN(c3ccccc3)CC2)[nH]c(=O)c1CCC(C)C | i
CCn1cc(C(=O)c2ccco2)c2ccccc21 | i

# Next results
mol | Mtb growth
COc1ccc(CCC(=O)Nc2ccc(I)cc2C)cc1 | 12.5%
Cc1ccc(OCC(=O)NC(=S)Nc2cc(C(=O)O)ccc2C)cc1C | i
CCOc1ccc(NC(=O)Nc2ccn(Cc3ccccc3F)n2)cc1 | 4.4%
COC(=O)Cc1ccc(NC(=S)NCCc2ccc(Cl)cc2)cc1 | 7.9%
Cc1ccc(O)c(NC(=O)COc2cc(C)ccc2C)c1 | i
Cc1ccccc1C(=O)NC(=S)Nc1ccc(C(=O)O)c(Cl)c1 | i
COC(=O)COc1ccc2ccccc2c1 | 24.2%
C=CCc1ccc(OCC(O)CN2CCN(Cc3ccccc3)CC2)c(OC)c1 (stereo not drawn) | i
Cc1nnc(SCC(=O)Nc2ccccc2)n1-c1ccc(Cl)cc1 | i
C=CCc1cccc2cc(C(=O)NC)c(=O)oc12 | i
FC(F)(F)c1ccccc1NC(=S)NC1CCN(Cc2ccccc2)CC1 | i
CCNc1nc(NCC)nc(N(C#N)C(=N)N)n1 | i
Cc1ccc2c(c1)c1c(n2CC(O)Cn2c(C)cc(C)nc2=O)C(=O)CCC1 (stereo not drawn) | 2.9%
CC(=O)c1cccc(NC(=O)NCCc2ccc(Cl)cc2)c1 | i
Cc1cc(C)cc(NC(=S)NCCC(C)C)c1 | ?
CC1CC(C)CN(CCOc2ccc3ccccc3c2)C1 (stereo not drawn) | i
O=C(Nc1ccc(C(F)(F)F)cc1Br)c1ccccc1F | i
COc1cc(NS(=O)(=O)c2cc(F)ccc2OC)c(OC)cc1Cl | 6.8%
COc1ccc(OC)c(S(=O)(=O)N(C)CC(=O)O)c1 | i
NC(=O)C1CCN(C(=O)CSc2ccccn2)CC1 | i
CCOc1ccc(N2C(=O)CC(Sc3nccc(C)n3)C2=O)cc1 (stereo not drawn) | i
COc1cc(NC(=O)c2ccccc2C)ccc1NC(=O)C(C)C | 1.0%
Cc1cccc(OCCn2c(NC(=O)c3ccco3)nc3ccccc32)c1 | 2.87µg/mL*
CCCCC(=O)Nc1ccc2oc(-c3cccc(C)c3)nc2c1 | 0.0%
COc1ccc(C(=O)NC(=S)NCCc2ccccc2)cc1 | 2.1%
Cc1ccc(SCCC(=O)NC23CC4CC(CC(C4)C2)C3)cc1 | 36.2%
O=C(CN1C(=O)c2ccccc2S1(=O)=O)Nc1ccccc1C(F)(F)F | i
O=S(=O)(Nc1nnc(C2CCCCC2)s1)c1ccc(Cl)cc1 | i
CC(=O)N1c2ccccc2NC2=C(C(=O)CC(c3ccc(F)cc3)C2)C1c1ccc(C#N)cc1 (stereo not drawn) | i
COc1cc2[nH]c(=S)n(CCc3ccccc3)c(=O)c2cc1OC | i
COc1ccc(S(=O)(=O)N(CC(=O)Nc2ccc(OC)c(Cl)c2)c2ccc(Cl)cc2)cc1 | i
CN(C)CC(=O)Nc1ccc(Br)cc1[N+](=O)[O-] | i
Cc1ccc(C(=O)COC(=O)CNC(=O)Cc2ccccc2)cc1 | i
O=C1Nc2ccc(S(=O)(=O)Nc3ccc(NS(=O)(=O)c4ccc5c6c(cccc46)C(=O)N5)cc3)c3cccc1c23 | i
CNC(=O)c1c(NC(C)=O)sc2c1CCCCC2 | i
O=C(Nc1cccnc1)c1cnn2cc(Br)cnc12 | i
N#CC1=C(N)Oc2cc(N)ccc2C1C1CCCCC1 (stereo not drawn) | i
COc1ccc(S(=O)(=O)N(CC(=O)Nc2ccc(Cl)c(Cl)c2)c2ccccc2OC)cc1 | i
COC(=O)C1C2C=CC3(CN(c4ccc(OC)cc4)C(=O)C13)O2 (stereo not drawn) | i
CCOC(=O)C(=O)Nc1ccc(S(=O)(=O)N2CCCCC2)cc1 | i
COc1ccc(NC(=O)Cc2nc(-c3cc4ccccc4oc3=O)cs2)cc1 | i
O=C(NCCCNC1CCCCC1)c1ccccn1 | i
COc1cccc(Oc2c(C)oc3cc(O)ccc3c2=O)c1 | i
C=CCn1c(SCC(=O)NC2CCCCC2)nnc1-c1sc(N)nc1C | i
O=C(c1ccc(Cl)s1)N1CCN(C/C=C/c2ccccc2)CC1 | i
CCc1ccc(C(C)NC(=O)CSc2ccccc2)cc1 (stereo not drawn) | 1.5%
C=CCOc1ccc(C(=O)Nc2ncn[nH]2)cc1 | i
Cc1ccc(OCC(=O)Nc2cccc(-c3nc4ccccc4s3)c2)cc1C | i
CCC(CC)N1CCN(C(=O)Cc2ccccc2)CC1 | i
CN(C)c1ccc(NC2CC(=O)N(c3ccc(SC(F)F)cc3)C2=O)cc1 (stereo not drawn) | i
CC1CCN(C(=O)c2ccc(-c3ccccc3)cc2)CC1 | 8.8%
CC(Oc1cccc(Cl)c1)C(=O)Nc1nccs1 (stereo not drawn) | 15.6%
COc1ccc(-c2cc(C(=O)Nc3ccc(C(=O)N4CCOCC4)cc3)c3cc(C)ccc3n2)cc1 | i
O=C(NNC(=O)c1cccc(O)c1)c1ccc(Br)cc1 | i
CS(=O)(=O)N(CC(=O)Nc1cccc(Cl)c1Cl)c1ccccc1F | i
COc1cc(C(=O)N2CCN(c3ccccc3)CC2)cc(OC)c1OC | i
CN(C)c1cccc(C(=O)NCc2cccnc2)c1 | i
N#Cc1c(N)nc2c(oc3ccccc32)c1-c1ccccc1 | 0.2%
COc1ccc(N/C(=N/c2nc(CSc3ccc(C)cc3)cc(=O)[nH]2)NC(=O)c2ccccc2)cc1 | i
CC1CN(CCCCOc2ccc(Cl)cc2)CC(C)O1 (stereo not drawn) | i

# Next part
mol | Mtb growth
CCOC(=O)C(=O)N1CCCc2ccccc21 | 3.1%
O=C(NC(=S)N1CCOCC1)c1cc2ccccc2o1 | ?
CC(=O)Nc1ccc(OCC(O)CN2CCN(c3ccccc3F)CC2)cc1 (stereo not drawn) | i
Cc1ccc(C(=O)Nc2ccc(Oc3ccccc3)cc2)c(Cl)c1 | 2.6%
O=C(Nc1c(-c2ccccc2)c2cc(Br)ccc2[nH]c1=O)c1ccccc1 | i
Fc1ccc(CNc2ccc(N3CCN(Cc4ccccc4)CC3)cc2)cc1 | 1.8%
COc1ccc(N(C(C)C(=O)Nc2ccccc2Cl)S(C)(=O)=O)cc1 (stereo not drawn) | 0.2%

# Only part of the results is shown, so the mix of outcomes need not match the whole.
